AID504770 – growth inhibition of E. coli YBA685, primary screen, V. cholerae RctB inhibitors | actives 0.27% (n = 130,000) | z-score (no concentration beside the values) | E. coli YBA685 rctB-dependent plasmid, OD600 growth, 3 h; stronger effect = lower value;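 active means z-score under -2 on both plates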;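 further: wells of about 30 µL received 100 nL stock; score is relative to mean and SD of the test wells; the first replicate is given; strong numbers were not always called active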
Ba CapD inh – Bacillus anthracis CapD inhibitors, primary screen, biochemical, fluorescence intensity; CapD gamma-glutamyltranspeptidase (Bacillus anthracis Ames Ancestor); purified CapD enzyme, fluorescence intensity read-out; stronger effect = lower value; some hits fall short of the stated cut; z-score (no concentration beside the values); actives 0.23% (n = 140,000); AID 492967, 2010;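 active means z-score under -4 in either of two replicates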;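 further: stock transfer was 100 nL into about 40 µL; score is relative to mean and spread of the plate; one replicate is shown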
An asterisk follows results filed as active; i = inactive; x = no result given. Compounds were not picked by outcome. Share with any hit: about 0.37%.

SMILES	AID504770	Ba CapD inh
CN(c1ccccc1)n1c(-c2ccccc2)nc2ccccc2c1=O	-0.25	0.15
CCC(=O)c1cn(CC(N)=O)c2ccccc12	-0.4	x
CN(C)c1nc(N(C)C)nc(N2CC(=O)N(CCBr)C2=O)n1	x	-0.125
Cc1cc(Cl)ccc1OC(C)C(=O)N/N=C/c1cn(C)c2ccccc12 (centres undefined)	x	-0.445
Cc1ccc(-c2csc(=Nc3ccccc3)n2CCc2ccccc2)cc1C	x	-0.7
COc1ccc(C2CC(C)=NN2C=O)cc1OC (centres undefined)	0.95	-0.18
Nc1ccccc1C(=O)NCC1CCCO1 (centres undefined)	-0.1	x
CCOC(=O)C1=C(C)N=c2s/c(=C/c3ccccc3OC(C)=O)c(=O)n2C1c1ccc(OC)c(OC)c1 (centres undefined)	x	-0.49
CN(C(=O)c1ccc(-c2nn(C)c(=O)c3ccccc23)cc1)C1CCCCC1	0.65	0
COc1cc(OC)nc(C(Sc2ccccn2)c2ccccc2)n1 (centres undefined)	x	-0.36
CCOC(=O)C1=NN(c2cccc(Cl)c2)C2(S1)c1ccccc1C(c1ccc(Cl)cc1)=NN2c1ccccc1 (centres undefined)	x	-0.14
CCOC(=O)c1oc2ccccc2c1N	0.6	85.1
CC1(C)Cc2cccc(OCC(=O)O)c2O1	0.35	0.815
CCOC(=O)CSc1n[nH]c(=S)s1	0.1	-1.04
COc1cc(/C=C2/C(=N)N3C(c4ccccc4)=CSC3=NC2=O)ccc1OCCOc1ccccc1C	x	-0.32
O=C(NCCNc1ncc(C(F)(F)F)cc1Cl)C(F)(F)Sc1ccccc1	-0.5	0.48
COC(=O)C1=C(C)OC(N)=C(C#N)C1c1cccc(Cl)c1 (centres undefined)	x	1.93
Cc1ccc(C)c(S(N)(=O)=O)c1	-0.9	x
CCOC(=O)C1C(=O)NC(N2CCc3ccccc32)=NC1c1ccccc1 (centres undefined)	-1.05	-0.205
O=C(O)CCNc1ccccc1C(=O)O	0.8	89.9
CC(C)(C)c1cc2cc(NC3CCN(C(=O)c4ccccc4Cl)CC3)ccc2[nH]1	x	-0.165
CC(C)(C)c1cc(C(C)(C)C)n(-c2ccc(C(=O)NNC(=O)Cc3ccsc3)cc2)n1	x	1.16
Cc1cccc(NC(=O)CSc2nc3c(c(-c4ccco4)c2C#N)CCCC3)c1	x	-0.245
Cc1cc2[nH]c(=O)c(=O)[nH]c2cc1S(=O)(=O)N1CCc2ccccc2C1	2	56.2
O=C(NCc1ccco1)C1CCC(C(=O)NCc2ccco2)CC1 (centres undefined)	0.05	0.255

Reprinted from the part before: four compounds, followed by the next part.
SMILES	AID504770	Ba CapD inh
CC(C)(C)c1cc(C(C)(C)C)n(-c2ccc(C(=O)NNC(=O)Cc3ccsc3)cc2)n1	x	1.16
Cc1cccc(NC(=O)CSc2nc3c(c(-c4ccco4)c2C#N)CCCC3)c1	x	-0.245
Cc1cc2[nH]c(=O)c(=O)[nH]c2cc1S(=O)(=O)N1CCc2ccccc2C1	2	56.2
O=C(NCc1ccco1)C1CCC(C(=O)NCc2ccco2)CC1 (centres undefined)	0.05	0.255
FC(F)(F)c1cc(Oc2ccc(Cl)cc2)c2cc(Cl)ccc2n1	1.45	-0.335
CNC(=S)N/N=C(\C)c1ccc(C)cc1	x	-0.565
COc1ccc(N(CCC#N)S(=O)(=O)c2cccc3nsnc23)cc1	1.95	x
Cc1cc(C)nc(OC(Cc2nc3ccccc3o2)c2ccc(C(C)(C)C)cc2)n1 (centres undefined)	x	-0.345
CCSc1nnc2c(n1)[nH]c1ccccc12	x	5.75
CCN1C(=O)C2(C(C#N)=C(N)Oc3n[nH]c(-c4ccncc4)c32)c2ccccc21 (centres undefined)	x	0.01
Cc1cc(C)c(OCC(O)Cn2cc(/C=N/O)c3ccccc32)c(C)c1 (centres undefined)	-0.25	x
Cc1ccc(NC(=O)CN2C(=O)CSCC2=O)cc1	-1.85	x
CCCCn1c(SC(C)C(N)=O)nc2cc(S(N)(=O)=O)ccc21 (centres undefined)	-1.65	x
Cc1ccc(C(=O)O)c(C(=O)Nc2nccs2)c1	0.4	0.27
Cc1cc(N2CC(C)CC(C)C2)nc2ccc(NC(=O)CCC(=O)Nc3ccc(F)cc3Cl)cc12 (centres undefined)	-0.85	0.315
NNC(=O)CS(=O)(=O)Cc1ccc(-c2csnn2)cc1	0.8	1.02
CC1(C)CC2(CCCN(CCC(O)(c3ccccc3)c3ccccc3)C2)CCO1 (centres undefined)	-1.1	0.185
CC1(C)CC(=O)C2=C(C1)OC(N)=C(C#N)C21C(=O)N(CO)c2ccccc21 (centres undefined)	0	17.1
CCOc1ccc(S(=O)(=O)n2ccc(C)n2)c2ccccc12	0.15	-0.085
O=C(CSC1CCCCC1)c1ccc(Br)cc1	0.8	-0.325
O=C1CCSc2ccc(Cl)cc2N1Cc1ccc(Cl)c(Cl)c1	x	-0.68
Cc1c(-c2ccnn2S(C)(=O)=O)sc2ccc(Cl)cc12	0.65	0.79
NC(=O)c1oc2ccccc2c1NC(=O)C1CC1	-0.8	1.82
CC1=CC(C)C(CN2CCOC2C(C)C)C(C)C1 (centres undefined)	0.85	0.29
CC(C)(C)n1cnnc1SCc1c(F)cccc1Cl	x	-0.185
N#Cc1ccccc1S(=O)(=O)NCCN1CCCCCC1	x	0.74
CCSC(SCC)C(=O)NNC(=S)Nc1ccc(Cl)cc1	x	-0.555
CCNS(=O)(=O)c1csc(C(N)=O)c1	-0.85	-0.115
FC(F)(F)c1cccc(-c2[nH]ncc2-c2ccnc3ccccc23)c1	x	-0.115

Given with two lines to a compound: entries from further up.
Below each SMILES: AID504770 | Ba CapD inh
- CC1(C)Cc2cccc(OCC(=O)O)c2O1
  0.35 | 0.815
- CCOC(=O)CSc1n[nH]c(=S)s1
  0.1 | -1.04
- COc1cc(/C=C2/C(=N)N3C(c4ccccc4)=CSC3=NC2=O)ccc1OCCOc1ccccc1C
  x | -0.32
- O=C(NCCNc1ncc(C(F)(F)F)cc1Cl)C(F)(F)Sc1ccccc1
  -0.5 | 0.48
- COC(=O)C1=C(C)OC(N)=C(C#N)C1c1cccc(Cl)c1 (centres undefined)
  x | 1.93
- Cc1ccc(C)c(S(N)(=O)=O)c1
  -0.9 | x

Carrying on.
SMILES	AID504770	Ba CapD inh
CCn1cc(CN(C(=O)Nc2cccc(OC)c2)C2CCCCC2)c2ccccc21	-0.25	23.3
CC1CCN(C(=O)C2CC(c3ccccc3F)=NO2)CC1 (centres undefined)	-0.25	-0.06
CCOC(=O)c1c(N(C(C)=O)C(C)=O)sc(=S)n1-c1ccccc1	-0.4	-0.85
CC1(C)CC(=O)C(C=NCc2ccc3c(c2)OCO3)=C(O)C1	-0.2	0.34
CCCCn1nnc(NC(=O)COc2ccc(Cl)c(C)c2)n1	1.2	-0.41
COc1cccc2cc(-c3csc(NC(=O)CCC(=O)NCc4ccccc4Cl)n3)c(=O)oc12	x	0.865
Cc1ccc2c(CC(=O)NNc3c(F)c(F)c(F)c(F)c3F)coc2c1	0.1	x
CCc1ccc(NS(=O)(=O)c2cc3[nH]c(=O)c(=O)[nH]c3cc2C)cc1	0.05	4.23
CCOC(=O)c1cc2c(=O)n3ccccc3nc2n(CC(C)C)c1=NC(C)=O	-0.6	2.59
FC(F)(F)c1cc(C(F)(F)F)c2ccc(SCc3ccccc3)nc2n1	x	0.185
O=C(CSc1nc2c(cnn2-c2ccccc2)c(=O)[nH]1)Nc1ccccc1	1.95	-0.75
COC(=O)c1n[nH]nc1C(=O)OC	0.6	-0.13
CCOC(=O)Cn1nc(C)c(NC(=O)c2ccc(OC)cc2)c1C	0.05	0.935
O=C(CSc1nnc(-c2ccco2)n1Cc1ccccc1)OCC(=O)c1c[nH]c2ccccc12	0.35	x
CC(C)OC(=O)CN1CCN(C2CCCCC2)CC1	0.55	x
Cc1ccc(-n2ncc3c(NCCO)ncnc32)c(C)c1	0.1	0.11
COc1ccc(-n2cc3ccsc3c2)c(OC)c1	2.05	-0.19
O=C(CNC(=O)c1ccc(Br)cc1)NC1=NCCS1	-0.1	-0.34
Cc1cc(Br)c(NC(=S)NN)c(Br)c1	x	-0.09
CCc1nc2c(sc3nc(C)cc(C)c32)c(=O)o1	0.8	0.93
COc1ccc2nc3sc(C(=O)NC4CC4)cc3cc2c1	0.75	4.55
COc1cccc(NC(=O)Cn2ncc3c4ccccc4n(C)c3c2=O)c1	-0.5	1.71
COc1cc(CC(=O)N=c2sc3ccccc3n2C)cc(OC)c1OC	0.45	x
CCC(=O)NC(Nc1sc2c(c1C(=O)OC)CCC2)(C(F)(F)F)C(F)(F)F	0.25	-0.315
O=C(Cn1cnc2onc(-c3ccc(F)cc3)c2c1=O)N1CCN(Cc2ccc3c(c2)OCO3)CC1	0.1	0.065

For convenience, part of the list above:
SMILES	AID504770	Ba CapD inh
CCOC(=O)c1cc2c(=O)n3ccccc3nc2n(CC(C)C)c1=NC(C)=O	-0.6	2.59
FC(F)(F)c1cc(C(F)(F)F)c2ccc(SCc3ccccc3)nc2n1	x	0.185
O=C(CSc1nc2c(cnn2-c2ccccc2)c(=O)[nH]1)Nc1ccccc1	1.95	-0.75
COC(=O)c1n[nH]nc1C(=O)OC	0.6	-0.13
CCOC(=O)Cn1nc(C)c(NC(=O)c2ccc(OC)cc2)c1C	0.05	0.935

Remaining list, next part
SMILES	AID504770	Ba CapD inh
CCN1CCN(c2ccc(NC(=O)/C=C/c3ccccc3)cc2)CC1	0.45	-1.11
O=C(NCCc1c[nH]c2ccccc12)N1CCN(Cc2ccc3c(c2)OCO3)CC1	x	0.1
COc1cc(CN(C)Cc2cc3c(cc2O)OCO3)ccc1OC(F)F	-0.05	x
CCOC(=O)C1=NN(c2ccc(C)cc2)C2(S1)c1ccccc1C(c1ccccc1)=NN2c1ccccc1 (centres undefined)	x	-0.33
FC(F)(F)c1cc(Nc2nnnc3ccccc23)cc(C(F)(F)F)c1	x	-0.525
Cc1nc2ccccc2n1CCOc1ccccc1	0.6	-1.15
CCC(=O)N(Cc1nc2ccccc2c(=O)[nH]1)Cc1ccccc1OC	1.1	x
COc1cc(C)c2c(c1)CCC1C2CCC2(C)C1CC[C@]2(C)O (some centres undefined)	x	-0.135
Nc1nc2ncc3c(n2n1)CCc1ccccc1-3	0.15	x
COc1ccc(S(=O)(=O)Nc2c(F)cc(F)cc2Br)cc1OC	0.65	-0.48
Cn1nc(-c2ccccc2F)c2cc(C(=O)N3CCc4ccccc4C3)sc21	0.05	-1.29
CC(C)C(NC(=O)c1ccc(CN2CCN(c3ccccc3)CC2)cc1)C(C)C	1.6	-0.34
C/C=C(\C)CN(C)CCc1ccccn1	-0.7	-0.045
CC1=C(C(=O)OCCCc2ccccc2)C(c2ccc(Cl)c(Cl)c2)CC(=O)N1 (centres undefined)	x	-0.375
COc1ccc(NC(=O)c2c(C)nn(-c3ccc(F)cc3)c2-n2cccc2)c(OC)c1	2.3	-0.15
CC(=O)Nc1ccc(NC(=O)C(Cc2ccccc2)NS(=O)(=O)c2ccc3c(c2)CCC(=O)N3)cc1 (centres undefined)	0.7	-0.285
CN(C)S(=O)(=O)N(CC(=O)Nc1ccccc1C(=O)N1CCOCC1)c1ccccc1	0.9	-0.3
Cc1nc(N2CCC(C)CC2)c2c(C)c(C(=O)Nc3ccc(F)cc3)sc2n1	x	0.505
CCOCCn1cnc2sc(C(=O)N3CCC4(CC3)OCCO4)c(C)c2c1=O	x	5.9
O=C(Nc1ccc(O)c(-c2nc3ccccc3s2)c1)c1ccc2c(c1)OCCO2	x	0.25
O=C(O)c1cc2c3c(c1)C1C=CCC1C(c1ccccc1F)N3CC1CC=CC21 (centres undefined)	x	6.44
CCOc1cccc2cc(C(=O)NC(C)=O)c(=Nc3ccc(Cl)cc3Cl)oc12	x	0.77
COc1cccc(-c2ccc(C#N)c(OC(=O)c3ccc(F)cc3F)n2)c1	x	19.8
FC(F)=C(F)CCSc1nc2nccc(/C=C\c3cccs3)n2n1	x	-1.64
C=CS(=O)(=O)c1cccc(Br)c1	-1.9	-0.345

Next section
SMILES	AID504770	Ba CapD inh
CSc1nc(-c2ccccc2)c(C#N)c(N2CCCCC2)n1	-0.95	0.33
Cc1cc(C)n(CNc2c(C)n(C)n(-c3ccccc3)c2=O)n1	-0.35	-0.315
COc1ccc(-c2cnc(N3CCN(c4ccccn4)CC3)nc2)cc1	x	1.07
O=c1[nH]c2ccc(Nc3nc(CN4CCOCC4)nc4scc(-c5cccs5)c34)cc2[nH]1	-0.15	x
N#CCCN(CCOC(=O)NNC(=O)CNS(=O)(=O)c1cccc2nsnc12)c1ccccc1	x	-0.295
O=S(=O)(c1ccccc1)c1nc(-c2ccco2)oc1N1CCCCC1	-1.25	-1.72
COc1ccc(CCNC(=O)CCCn2c(SCC(=O)n3nc(N)cc3C)nc3ccccc3c2=O)cc1OC	x	0
CC1CC(C)CN(C(=O)c2ccc3c(c2)N(Cc2ccc(F)cc2)C(=O)c2ccccc2S3=O)C1 (centres undefined)	0.9	-0.61
O=C(c1ccccc1F)N1CCN(c2ccc([N+](=O)[O-])cn2)CC1	x	0.18
Cc1ccc(CSc2ncnc3c2nnn3Cc2ccccc2)cc1	0	x
CC1CCCN(C(=O)COC(=O)c2ccc(N(C)C)cc2)C1 (centres undefined)	-0.15	x
Cc1ccc(NC(=O)CC2S/C(=N\N=C\c3cccc(O)c3)NC2=O)cc1Cl (centres undefined)	1.6	-0.15
COc1cccc2sc(Nc3ccc(F)cc3)nc12	-0.8	x
CC1(C)CC(=O)C(C(=S)Nc2ccccc2)C(=O)C1	1.5	-0.09
O=c1c(-c2nc3ccccc3s2)coc2cc(O)ccc12	-0.25	i
COc1ccc(O)c(C=NCC(C)N=Cc2cc(OC)ccc2O)c1 (centres undefined)	0.05	7.24
Cc1cc(C)nc(Sc2ccc(OCC3OCCO3)cc2)n1	x	-0.33
NC(=Nc1ccc(Br)cc1)c1ccccc1	0.05	-0.005
Cc1ccc(S(=O)(=O)NC2(C(=O)O)CCCCC2)cc1	-0.5	0.905
CN1CCN(S(=O)(=O)c2cccc(C(=O)C(C#N)c3ccccn3)c2)CC1 (centres undefined)	-0.2	x
